Source: PubChem BioAssay
HNF4A DNA FP = change in binding of human HNF4 alpha to DNA | AID 1224865 | HNF4a-FITC DNA binding, fluorescence polarization, 1 h | 360,000 compounds, 0.3% hits | activity change, % at 10 µM; in the data active = activity change above about 30%, passing the limit was not always enough;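 note: controls were the assay level and a saturating level of protein; the project sought stronger binding though the title names inhibitors; some compounds called inactive have numbers as strong as hits; positive values seem to mean higher polarization but the record does not say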
ALR H2O2 inh = inhibitors of human sulfhydryl oxidase ALR | P55789 | purified ALR, DTT oxidation, H2O2 HRP-luminol luminescence | inhibition, % (test concentration not listed) | 290,000 compounds, 3.8% hits | AID 485317;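 active = mean and each replicate at 75% or more; inconclusive = only one of the two met; inactive = neither met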;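 note: stock transfer was 7.5 nL into about 7.5 µL; 0% = neutral wells and 100% = wells with inactivated enzyme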
Target sequence (P55789 whole entry, looked up): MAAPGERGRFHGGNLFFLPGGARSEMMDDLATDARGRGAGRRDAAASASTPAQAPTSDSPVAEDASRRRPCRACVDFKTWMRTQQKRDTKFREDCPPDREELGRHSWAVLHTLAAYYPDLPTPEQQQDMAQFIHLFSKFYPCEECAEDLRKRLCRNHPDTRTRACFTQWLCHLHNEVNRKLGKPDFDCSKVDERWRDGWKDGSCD
rRNA inh HTS = inhibitors of bacterial rRNA selective over humanized ribosomes | E. coli WT GFP vs humanized-ribosome RFP mutants, fluorescence, 24 h; stronger effect = lower value; DMSO median 0, no signal -100 | GFP signal change (wild-type ribosome), % (concentration not given with the values) | 350,000 compounds, 1.6% hits;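 active = significant combined selectivity score with lowered wild-type GFP, culture density cut under 30%, mutant RFP and density less affected; inactive = any of these conditions unmet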; note: one replicate is shown; some compounds called inactive have numbers as strong as hits
FGF22 binding = binders of recombinant human FGF22 by thermal shift | Q9HCT0 | SYPRO orange fluorescence; percent of sucrose octasulfate shift, DMSO zero | calls only at 9.99 µM | 340,000 compounds, 1.5% hits;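 active = melting point raised past a set limit in the mean and every replicate; inconclusive = no clear call; three in four hits are not shown here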
Target sequence (Q9HCT0 whole entry, looked up): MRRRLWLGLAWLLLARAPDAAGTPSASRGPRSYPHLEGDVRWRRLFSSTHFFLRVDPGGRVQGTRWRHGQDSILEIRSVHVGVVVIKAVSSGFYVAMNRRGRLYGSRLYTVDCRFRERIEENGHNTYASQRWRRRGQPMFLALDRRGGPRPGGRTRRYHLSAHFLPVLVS
E coli growth = E. coli growth inhibition. Escherichia coli growth, OD600, 23 h; stronger effect = lower value. OD600 absorbance (concentration not given with the values). 330,000 compounds, 0.21% hits. AID 1053175;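 active = OD600 absorbance below the run mean of sample wells minus 3.6 SD, in any replicate, cut at about 0.56 in these data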;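 note: stock transfer was 300 nL into about 60 µL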
MLL AF4-AF9 inh = MLL-AF4/AF9 protein interaction inhibition; P42568; AlphaScreen, biotin-AF4 peptide binding to FLAG-AF9; inhibition, % at 10 µM; 350,000 compounds, 0.47% hits;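 active = every replicate reaching a set inhibition limit, whatever the replicate mean, cut at about 25% in these data; inconclusive = mean inhibition reaches that limit but some replicates miss it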;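 note: 0% = plate neutral control median and 100% = total signal loss; the record names both 10 and 1 µM as test concentration; the first replicate is given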
Target sequence (P42568 whole entry, looked up): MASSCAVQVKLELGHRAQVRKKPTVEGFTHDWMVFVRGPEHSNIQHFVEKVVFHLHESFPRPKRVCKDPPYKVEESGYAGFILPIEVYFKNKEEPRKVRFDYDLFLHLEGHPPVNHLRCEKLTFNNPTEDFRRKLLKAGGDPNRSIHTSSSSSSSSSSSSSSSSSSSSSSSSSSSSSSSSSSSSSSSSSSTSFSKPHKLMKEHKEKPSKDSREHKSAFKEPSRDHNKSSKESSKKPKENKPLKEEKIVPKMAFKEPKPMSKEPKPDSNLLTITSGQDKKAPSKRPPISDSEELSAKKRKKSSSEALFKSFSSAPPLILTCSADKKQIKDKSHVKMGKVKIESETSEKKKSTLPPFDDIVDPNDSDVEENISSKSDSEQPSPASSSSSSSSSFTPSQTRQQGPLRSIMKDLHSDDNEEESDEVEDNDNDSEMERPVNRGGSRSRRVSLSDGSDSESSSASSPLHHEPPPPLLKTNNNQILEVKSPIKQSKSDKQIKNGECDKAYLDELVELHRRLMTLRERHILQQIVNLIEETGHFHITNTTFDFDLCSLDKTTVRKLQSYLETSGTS
Vif A3G = inhibitors of Vif binding to APOBEC3G peptide, primary screen, biochemical, TR-FRET, GST-Vif 1-94, biotin-A3G peptide, dose response retest (AID 1117319) | TR-FRET GST-Vif / biotin-A3G peptide binding; higher % means a stronger effect; test concentration not given here; strong numbers were not always called active | one-dose inhibition, %; IC50 in µM for titrated hits | 260,000 compounds, 0.57% hits;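 active = above the screen mean plus three standard deviations and confirmed in dose response; inconclusive = results disagree or hit not tested in dose response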;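 note: Vif residues 1-94 fused to GST binding biotinylated APOBEC3G peptide 110-148; 0% = full assay without inhibitor and 100% = GST in place of GST-Vif; retest series ran down from 100 µM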
rRNA inh HTS OD600 = also measured in rRNA inh HTS; calls as there; OD600 change, %; measured here: OD600 growth;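 optical density of the mix in the first replicate; 0 = DMSO median and -100 = no signal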
rRNA inh HTS RFP = further read-out of rRNA inh HTS, marked with its call; RFP signal change, %; measured here: RFP humanized mutant strains;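 first replicate; 0 = DMSO median and -100 = no signal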
Active calls of the source: *; & = joins results of further samples. An excerpt; count on the stated rates, not on these rows.

Screening CN(C)/C=N/c1ncc(-c2ncc(C(F)(F)F)cc2Cl)cn1 returned HNF4A DNA FP -3.6, ALR H2O2 inh -0.5, rRNA inh HTS 13.4, FGF22 binding inactive, MLL AF4-AF9 inh -7.4, Vif A3G 25.1%, rRNA inh HTS OD600 14.2 and rRNA inh HTS RFP 0.8.
Screening Fc1ccc(COc2ccccc2C(=S)N2CCCC2)cc1 returned HNF4A DNA FP 0.4, ALR H2O2 inh -5.0 and E coli growth 0.648.
For CCOC(=O)CC(=O)CSc1ncnc2c1nnn2-c1ccc(OC)cc1 the results were HNF4A DNA FP 2.9, ALR H2O2 inh 3.4, rRNA inh HTS 1.2, FGF22 binding inactive, E coli growth 0.733, MLL AF4-AF9 inh -1.5, Vif A3G -11.6%, rRNA inh HTS OD600 1.6 and rRNA inh HTS RFP 8.3.
CC(c1nc2ccccc2[nH]1)n1c(-c2ccncc2)nc2ccccc21 (stereo not drawn) was read as HNF4A DNA FP 2.4, rRNA inh HTS -1.3, FGF22 binding inactive, rRNA inh HTS OD600 10.1 and rRNA inh HTS RFP -3.1.
CCSc1nnc(-c2ccccc2NC(C)=O)c(=O)[nH]1 was read as HNF4A DNA FP -1.8, ALR H2O2 inh 0.0, E coli growth 0.679 and Vif A3G inconclusive.
`O=C(C[C@H]1C[C@@H]2c3cc(NC(=O)C4CCOCC4)ccc3O[C@@H]2[C@@H](CO)O1)NCc1ccncc1` gave rRNA inh HTS 1.1, FGF22 binding inactive, MLL AF4-AF9 inh -1.7, rRNA inh HTS OD600 0.3 and rRNA inh HTS RFP -3.9.
Cc1ccc(S(=O)(=O)NCC[C@@H]2CC[C@H](NC(=O)Nc3ccccc3F)[C@H](CO)O2)cc1 was read as rRNA inh HTS 0.8, FGF22 binding inactive, MLL AF4-AF9 inh 0.2, rRNA inh HTS OD600 1.9 and rRNA inh HTS RFP -5.0.
O=C(O)c1ccccc1Nc1ccccc1 was read as HNF4A DNA FP -1.8, ALR H2O2 inh 99.1*, FGF22 binding inactive, E coli growth 0.661 and MLL AF4-AF9 inh -1.2.
For CCCN(CCC)Cc1cc(=O)oc2cc(OC)c(Cl)cc12 the results were HNF4A DNA FP -3.2, rRNA inh HTS 3.9, FGF22 binding inactive, MLL AF4-AF9 inh -1.1, rRNA inh HTS OD600 0.4 and rRNA inh HTS RFP -1.1.
`CCCN1[C@@H]2c3ccc(/C=C/c4ccccc4)c(=O)n3C[C@@H]2[C@@H](CO)[C@@H]1C(=O)NCC` gave rRNA inh HTS -3.1, FGF22 binding inactive, MLL AF4-AF9 inh -5.2, rRNA inh HTS OD600 -10.9 and rRNA inh HTS RFP 3.4.
For O=C(O)C[C@@H]1C[C@@H]2c3cc(NC(=O)NC4CCCCC4)ccc3O[C@@H]2[C@H](CO)O1 the results were rRNA inh HTS 3.5, FGF22 binding inactive, MLL AF4-AF9 inh -1.8, rRNA inh HTS OD600 5.0 and rRNA inh HTS RFP -1.5.
C[C@@H]1CN([C@H](C)CO)C(=O)c2cc(Br)cnc2O[C@@H]1CN(C)C(=O)c1ccccc1 was read as HNF4A DNA FP -2.3, rRNA inh HTS 4.8&-0.6, FGF22 binding inactive, MLL AF4-AF9 inh -1.2&-2.1&-4.7, Vif A3G 1.8%, rRNA inh HTS OD600 7.0&1.5 and rRNA inh HTS RFP 2.8&-0.4.
`COc1ccc(-c2c(-c3ccccc3OC)sc3ccccc23)cc1` gave HNF4A DNA FP 4.3, ALR H2O2 inh 2.1, rRNA inh HTS 10.6, FGF22 binding inactive, E coli growth 0.844, MLL AF4-AF9 inh 3.1, rRNA inh HTS OD600 7.0 and rRNA inh HTS RFP -3.3.
O=C(Nc1ccncc1)c1ccc2c(c1)OCCO2 was read as HNF4A DNA FP 1.5, ALR H2O2 inh -6.5, E coli growth 0.71 and Vif A3G 1.1%.
For C[C@@H](NC(=O)C[C@H]1C[C@@H]2c3cc(NC(=O)Nc4ccccc4F)ccc3O[C@@H]2[C@@H](CO)O1)c1ccccc1 the results were rRNA inh HTS -8.9, FGF22 binding inactive, MLL AF4-AF9 inh 5.7, rRNA inh HTS OD600 -19.7 and rRNA inh HTS RFP 4.8.
Cc1cccnc1NC(=O)C1CC(=O)N(c2ccc3c(c2)OCCO3)C1 (stereo not drawn) was read as HNF4A DNA FP 0.1, ALR H2O2 inh -1.6, rRNA inh HTS 7.7, FGF22 binding inactive, E coli growth 0.724, MLL AF4-AF9 inh -3.0, Vif A3G -5.1%, rRNA inh HTS OD600 8.2 and rRNA inh HTS RFP -3.1.
For CN(C)C(=O)[C@@H]1[C@@H](CO)[C@@H]2Cn3c(ccc(-c4ccncc4)c3=O)[C@@H]2N1Cc1ccccc1F the results were rRNA inh HTS -2.0, FGF22 binding inactive, MLL AF4-AF9 inh -5.0, rRNA inh HTS OD600 -2.3 and rRNA inh HTS RFP -0.4.
For Cc1ccc(N2C(=O)CS(=O)(=O)CC2=O)cc1 the results were HNF4A DNA FP 1.9, ALR H2O2 inh 11.7, rRNA inh HTS 23.0, FGF22 binding inactive, E coli growth 0.698, MLL AF4-AF9 inh -2.5, Vif A3G 3.5%, rRNA inh HTS OD600 17.5 and rRNA inh HTS RFP -0.4.
`COc1ccccc1N(CC(=O)N1CCCCCC1)S(C)(=O)=O` gave HNF4A DNA FP 0.5, E coli growth 0.678 and Vif A3G inconclusive.
`COc1ccc(OCC(=O)Nc2ccc(C(=O)Nc3ccccc3C(=O)O)cc2)cc1` gave HNF4A DNA FP 3.5, ALR H2O2 inh 3.4, rRNA inh HTS -23.7, FGF22 binding inactive, E coli growth 0.628, MLL AF4-AF9 inh -8.8, Vif A3G -3.4%, rRNA inh HTS OD600 -40.2 and rRNA inh HTS RFP -8.9.
For COc1ccc(C(=O)C(OC(=O)c2ccc(C)c(NC(C)=O)c2)c2ccccc2)cc1 (stereo not drawn) the results were HNF4A DNA FP 2.7, ALR H2O2 inh -29.1, E coli growth 0.7 and Vif A3G 20.6%.
Screening COc1cccc(S(=O)(=O)N(C)C[C@H]2Oc3ncc(C#CCC(C)C)cc3C(=O)N([C@@H](C)CO)C[C@@H]2C)c1 returned rRNA inh HTS -0.6, FGF22 binding inactive, MLL AF4-AF9 inh 0.2, rRNA inh HTS OD600 7.7 and rRNA inh HTS RFP 0.0.
Screening Cn1nc(C(F)(F)F)c(/C=N/OC(=O)c2ccccc2)c1SCc1ccc(Cl)cc1 returned HNF4A DNA FP 2.8, ALR H2O2 inh -3.1 and Vif A3G 0.1%.
Screening COc1ccc(S(=O)(=O)NCc2csc(C)n2)cc1OC returned HNF4A DNA FP -2.4, ALR H2O2 inh -3.1, rRNA inh HTS 6.1, FGF22 binding inactive, E coli growth 0.697, MLL AF4-AF9 inh -0.9, Vif A3G -0.8%, rRNA inh HTS OD600 17.0 and rRNA inh HTS RFP 0.9.

Next section, overlapping the part above by 3 compounds.
Screening COc1cccc(S(=O)(=O)N(C)C[C@H]2Oc3ncc(C#CCC(C)C)cc3C(=O)N([C@@H](C)CO)C[C@@H]2C)c1 returned rRNA inh HTS -0.6, FGF22 binding inactive, MLL AF4-AF9 inh 0.2, rRNA inh HTS OD600 7.7 and rRNA inh HTS RFP 0.0.
Screening Cn1nc(C(F)(F)F)c(/C=N/OC(=O)c2ccccc2)c1SCc1ccc(Cl)cc1 returned HNF4A DNA FP 2.8, ALR H2O2 inh -3.1 and Vif A3G 0.1%.
Screening COc1ccc(S(=O)(=O)NCc2csc(C)n2)cc1OC returned HNF4A DNA FP -2.4, ALR H2O2 inh -3.1, rRNA inh HTS 6.1, FGF22 binding inactive, E coli growth 0.697, MLL AF4-AF9 inh -0.9, Vif A3G -0.8%, rRNA inh HTS OD600 17.0 and rRNA inh HTS RFP 0.9.
For c1ccc(CSc2ncnc3c2ncn3C2CCCCO2)cc1 (stereo not drawn) the results were HNF4A DNA FP 6.2, rRNA inh HTS -18.8, E coli growth 0.692, MLL AF4-AF9 inh -3.1, Vif A3G -6.0%, rRNA inh HTS OD600 -30.6 and rRNA inh HTS RFP -3.5.
Screening Nc1nc(-c2ccc3c(c2)CCCC3)c(CC(=O)O)s1 returned HNF4A DNA FP 1.7, ALR H2O2 inh 35.4, rRNA inh HTS -10.3, FGF22 binding inactive, E coli growth 0.684, MLL AF4-AF9 inh 1.6, Vif A3G -5.0%, rRNA inh HTS OD600 -1.1 and rRNA inh HTS RFP 3.3.
`CCCOc1ccc(/C=N/NC(=O)CN2CCCCC2)cc1OCC` gave HNF4A DNA FP -4.0, ALR H2O2 inh -29.7, rRNA inh HTS 20.9, FGF22 binding inactive, MLL AF4-AF9 inh -0.3, rRNA inh HTS OD600 15.7 and rRNA inh HTS RFP 0.9.
O=C(NCc1ccncc1)c1ccc(Cl)c(S(=O)(=O)N2CCCCC2)c1 was read as HNF4A DNA FP 0.2, ALR H2O2 inh -6.3, rRNA inh HTS 1.0, FGF22 binding inactive, E coli growth 0.714, MLL AF4-AF9 inh -1.0, Vif A3G 6.0%, rRNA inh HTS OD600 -2.9 and rRNA inh HTS RFP -0.9.
For COc1ccc(NC(=O)N(C)[C@H]2C[C@H]3c4[nH]c5ccccc5c4CCN3C(=O)[C@H]2[C@H](C)O)cc1 the results were HNF4A DNA FP 3.7, rRNA inh HTS -12.0, FGF22 binding inactive, MLL AF4-AF9 inh 4.0, Vif A3G -1.7%, rRNA inh HTS OD600 -8.8 and rRNA inh HTS RFP -3.2.
Cc1ccc(-c2cnc3c(c2)C(=O)N([C@H](C)CO)C[C@H](C)[C@H](CN(C)C(=O)c2cccc(F)c2)O3)cc1 was read as rRNA inh HTS -2.8, FGF22 binding inactive, MLL AF4-AF9 inh -1.5, rRNA inh HTS OD600 2.5 and rRNA inh HTS RFP -1.2.
O=[N+]([O-])c1ccc(Cl)c(CN2CCC(O)CC2)c1 was read as HNF4A DNA FP -5.5, ALR H2O2 inh -5.2, rRNA inh HTS 22.3, FGF22 binding inactive, E coli growth 0.688, MLL AF4-AF9 inh 2.7, Vif A3G -7.8%, rRNA inh HTS OD600 24.9 and rRNA inh HTS RFP -7.0.
CC(=O)Nc1ccc([N+](=O)[O-])cn1 was read as HNF4A DNA FP 4.2, ALR H2O2 inh -17.2, E coli growth 0.77 and Vif A3G -1.7%.
Screening COc1ccc(-n2c(C)cc(/C=N/Nc3nc(N4CCOCC4)nc(N4CCOCC4)n3)c2C)cc1 returned HNF4A DNA FP 1.1, ALR H2O2 inh 4.0, FGF22 binding inactive, MLL AF4-AF9 inh 12.9 and Vif A3G 8.1%.
For C[C@@H]1CCCCO[C@H](CN(C)S(=O)(=O)c2cccs2)[C@@H](C)CN([C@H](C)CO)C(=O)c2cc(N(C)C)ccc2O1 the results were rRNA inh HTS -2.7, FGF22 binding inactive, MLL AF4-AF9 inh 2.4, rRNA inh HTS OD600 2.2 and rRNA inh HTS RFP 1.6.
COc1cc(C(C(=O)NC(C)(C)C)N(Cc2ccccc2)C(=O)c2cnccn2)cc(OC)c1OC (stereo not drawn) was read as HNF4A DNA FP 3.5, ALR H2O2 inh -4.0, E coli growth 0.693 and Vif A3G -0.1%&-0.5%.
Screening COc1ccc(-n2nnc3c(SC(C(C)=O)C(=O)N(C)C)ncnc32)cc1 (stereo not drawn) returned HNF4A DNA FP 3.9, ALR H2O2 inh 37.7, rRNA inh HTS -3.9, FGF22 binding inactive, E coli growth 0.688, MLL AF4-AF9 inh -1.8, rRNA inh HTS OD600 -7.1 and rRNA inh HTS RFP -0.4.
For CCN(CC)c1ccc(NC(=O)c2[nH]c(C)c(C(C)=O)c2C)c(C)c1 the results were HNF4A DNA FP -5.7, ALR H2O2 inh 53.0, E coli growth 0.69 and Vif A3G -1.1%.
